HTT promoter inh – Primary qHTS for Identification of Small Molecule Inhibitors of Huntingtin Promoter Activity. HEK293 HTT promoter firefly luciferase reporter (activity 0% = vehicle and -100% = no light), 24 h. Potency, µM (top dose mostly 57.5 µM), for the others: at the highest dose activity change, negative = inhibition, most hits filed as inhibitors. 0.93% of 48,000 active; active = well fitted inhibition curve with a large enough effect; inconclusive = small, poorly fitted or top-dose-only effect; inactive = no such curve, though single readings can be large or run the other way; also: nearly all actives have a fitted effect of over 50% in size
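HEK293 cells carrying firefly luciferase reporters were seeded at 2,500 per well in Opti-MEM and cultured for 24 h. They were then treated with compounds at up to 57.5 uM final for 24 h at 37 degrees C before Dual-Glo luminescence readout.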
PMP22 txn prim – Cell-based coincidence reporter assay to measure PMP22 gene transcription in S16 Pmp22-F2sN cells - Primary screen; Potency, µM (doses to about 57.5 µM), without a hit: at the highest dose activity change, negative = inhibition, usual class: inhibitors; S16 Pmp22-F2sN Schwann cells (luciferase reporters placed in the Pmp22 gene), FLuc/NLuc coincidence luminescence, 24 h; 2% of 43,000 active; active = clear falling dose curves in both reporters; inconclusive = both reporters move, but less clearly or upward; inactive = either reporter flat; the % is the NLuc reporter signal; also: % is scaled to controls: 0 for no effect and ±100 for the full control effect; some results filed as inactive show a strong effect at the top dose
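Luminescent read-out of sequential FLuc and NLuc signals from a reporter embedded in the Pmp22 3' UTR of S16 Schwann cells, taken after 24 h compound exposure at 37C; compounds reducing both signals score as inhibitors of expression.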
* marks the source's active call; other numbers are inactive results; ? = inconclusive; / = no result given; & = joins results of further samples; [ ] = another dose, or the depositor's remark. Potency is read from the fitted curve at half-maximal effect.

SMILES | HTT promoter inh | PMP22 txn prim
C1CCC(NC2CCCCC2)CC1 | -1% | /
C=C[C@@H]1CN2CCC1C[C@@H]2[C@@H](O)c1ccnc2ccccc12 (stereo partly specified) | ? | /
CCOc1ccc2nc(NC(=O)c3cccn(Cc4ccccc4C)c3=O)sc2c1 | -13% | -9%
Clc1ccc(C(OCCN2CCCCC2)c2ccccc2)cc1 (stereo unspecified) | -7% | /
CCCC1=Nc2cc(C(=O)NCCCN(CC)CC)ccc2Sc2ccccc21 | -10% | ?
O=C(N[C@H]1N=C(c2ccccc2F)c2cccc3c2N(CC3)C1=O)c1cc2ccccc2[nH]1 | -12% | /
Cc1cccc(CN2CC=C(c3noc(CCC(=O)Nc4ccc(C)c(F)c4)n3)CC2)c1 | -17% | ?
C=CCN1CC[C@]23c4c5ccc(O)c4O[C@H]2C(=O)CC[C@@]3(O)[C@H]1C5 | 11% | /
CCc1nc(SC)ncc1C(=O)Nc1ccc(Cl)cc1C(=O)c1ccccc1 | -14% | -2%
CN1C(=O)CN=C(c2ccccc2)c2cc(Cl)ccc21 | 11% | /
c1cc2ccc3cccc4ccc(c1)c2c34 | -2%[116 µM] | /
NNc1ccccc1 | -16% | /
O=[N+]([O-])c1c(Cl)c(Cl)cc(Cl)c1Cl | 9%[116 µM] | /
C[C@@]12OC(=O)[C@]1([C@@H](O)[C@@H]1C=CCCC1)NC(=O)[C@H]2CCCl | ? | /
CCCc1nc(SC)ncc1C(=O)Nc1ccc(Cl)cc1C(=O)c1ccccc1 | -11% | 2%
C[C@@H]1[C@@H](CC(C[C@H]2O[C@@H]3O[C@]4(C)CC[C@@H]5[C@H](C)CC[C@@H]([C@H]2C)[C@@]35OO4)C[S+](=O)([O-])c2ccc(COC(=O)N(C)C)cc2)O[C@@H]2O[C@]3(C)CC[C@H]4[C@H](C)CC[C@@H]1[C@@]24OO3 (stereo partly specified) | ? | /
CCCCCCC(=O)CCCCCC/C=C/C[C@@H](O)[C@H](O)[C@@](N)(CO)C(=O)O | 0%[25.2 µM] | /
CC1Sc2c(C(=O)O)c(=O)c3cc(F)c(N4CCNCC4)cc3n21 (stereo unspecified) | 13% | /
Nc1c(C(=O)Nc2ccc(Cl)cc2)sc2nc3c(cc12)N1CCC3CC1 | ? | ?
COC[C@H]1OC(=O)c2coc3c2[C@@]1(C)C1=C(C3=O)[C@@H]2CC[C@H](O)[C@@]2(C)C[C@@H]1OC(C)=O | ? | /
C=C1C[C@@H]2[C@H](CC[C@]3(C)C(=O)CC[C@@H]23)[C@@]2(C)C=CC(=O)C=C12 | 0% | /
COc1cccc(-n2c(/C=C/c3cccc(C)c3)nc3ccccc3c2=O)c1 | -9%[11.5 µM] | -28%
Cc1ccc(OCC(=O)Nc2ccc(Cl)cc2C(=O)c2ccccc2)cc1 | 1% | 9%
Cc1ccc(-n2c(/C=C/c3cccc4ccccc34)nc3ccccc3c2=O)cc1 | -16% | -4%
CCCCOC(=O)c1ccccc1C(=O)OCc1ccccc1 | 20%[116 µM] | /
CN1[C@@H]2CC[C@H]1CC(OC(=O)c1cc(Cl)cc(Cl)c1)C2 (stereo partly specified) | -9% | /
Cc1cccc(Cn2cccc(C(=O)Nc3cc(C)on3)c2=O)c1 | -10% | 0%
Cn1c(CCCC(=O)O)nc2cc(N(CCCl)CCCl)ccc21 | 0%&-10% | /
CN1CCC(O)(c2ccc(F)cc2)C(C(=O)c2ccc(F)cc2)C1 (stereo unspecified) | 2% | /
COc1ccc(-c2nc(CN3C(=O)CN=C(c4ccccc4Cl)c4cc(Cl)ccc43)c(C)o2)cc1OC | ? | ?
CCN1CCCC1CNC(=O)C(O)(c1ccccc1)c1ccccc1 (stereo unspecified) | 6% | /
CCCc1ccc(OCC(=O)Nc2ccc(Cl)cc2C(=O)c2ccccc2)cc1 | 3% | -27%
CN(C)NC(=O)CCC(=O)O | -9% | /
CS(=O)(=O)c1ccc(C(=O)C2C(=O)CCCC2=O)c([N+](=O)[O-])c1 | 12%[116 µM] | /
CSc1ccc(C(c2c(O)c3ccccc3oc2=O)c2c(C)n(C)n(-c3ccccc3)c2=O)cc1 (stereo unspecified) | -21% | -45%
CCOc1ccc(CN(CCc2ccc3c(c2)OCO3)Cc2cccc(C)c2)cc1 | -29% | ?
O=c1c2ccccc2nc(/C=C\c2ccccc2F)n1-c1ccc(O)cc1 | -36% | 3%
CCN(CC)CCOC(=O)C(O)(c1ccccc1)c1ccccc1 | -6% | /
CCOc1ccc(CN(CCc2ccc3c(c2)OCO3)Cc2ccc(C)cc2)cc1 | -22% | 3%
CCOP(=O)(NC(C)C)Oc1ccc(SC)c(C)c1 (stereo unspecified) | -18%[116 µM] | /
COc1ccc2c(c1)[C@]13CCCCC1C(C2)N(C)CC3 (stereo partly specified) | 11% | /
CCOC(=O)C(c1c(O)c2ccccc2oc1=O)c1c(O)c2ccccc2oc1=O | -9% | /
CC[C@@]1(O)C(=O)OCc2c1cc1n(c2=O)Cc2cc3ccccc3nc2-1 | -27% | /
CN1C(=O)NC(=O)C(C)(C2=CCCCC2)C1=O (stereo unspecified) | -3% | /
Cc1c(C(=O)Nc2cccc(C(F)(F)F)c2)cc(-c2ccccc2)n1CCCN1CCOCC1 | 2% | /
C[C@]12CC[C@H](O)CC1=CC[C@@H]1[C@@H]2CC[C@]2(C)C(=O)CC[C@@H]12 | -4% | /
O=P1(NCCCl)OCCCN1CCCl (stereo unspecified) | 3%&7% | /
C[C@H]([C@H](O)CCC(C)(C)O)[C@H]1CC[C@@]2(O)C3=CC(=O)[C@@H]4C[C@@H](O)[C@@H](O)C[C@]4(C)[C@@H]3CC[C@]12C | -8% | /
CCC(=O)O[C@H]1CC[C@H]2[C@@H]3CCC4=CC(=O)CC[C@]4(C)[C@H]3CC[C@]12C | -7% | /
C=Cc1ccc(Cn2c(C)c(CNCCc3cc(OC)ccc3OC)c(C(=O)O)c2C)cc1 | 6% | -14%
O=c1[nH]c2ccccc2n1C1CCN(CCCC(c2ccc(F)cc2)c2ccc(F)cc2)CC1 | ? | /
CCCN(CCC)C(=O)Cc1c(-c2ccc(Cl)cc2)nc2ccc(Cl)cn12 | -4% | /
COc1ccc2c(c1OC)C(=O)O[C@H]2[C@@H]1c2cc3c(cc2CCN1C)OCO3 | 4% | /
Cc1ccccc1-c1nn2c(=O)cc(CN3CCN(C(=O)COc4ccccc4Cl)CC3)nc2s1 | ? | ?
CN(C)CCc1ccc(O)cc1 | -5%&3% | /
CCOC(=O)CC(SP(=S)(OC)OC)C(=O)OCC (stereo unspecified) | 7% | /
CCNC(=O)CC1N=C(c2ccc(Cl)cc2)c2cc(OC)ccc2-n2c(C)nnc21 (stereo unspecified) | -12% | /
NCCc1cc(O)c(O)cc1O | 5% | /
COc1cc2[nH]c(=O)n(-c3ccc(C)cc3)c(=O)c2cc1OC | 5% | -1%
CCC12CN3CC(CC)(CN(C1)C3c1c(C)[nH]c(=O)[nH]c1=O)C2=O (stereo unspecified) | -10% | 13%

Following part:
SMILES | HTT promoter inh | PMP22 txn prim
CC(CC(C(N)=O)(c1ccccc1)c1ccccc1)N(C)C (stereo unspecified) | 8% | /
O=C(Nc1ccc2c(c1)OCCO2)c1cccn(Cc2cccc(F)c2)c1=O | 0% | -15%
Cc1ccc(NC(=O)Cn2cc(C(=O)c3ccccc3)c3ccccc32)c(C)c1 | -30% | ?
CC(Cc1ccccc1)NCCCCl (stereo unspecified) | -2% | /
Cc1cc(-n2c(/C=C/c3cccs3)nc3ccccc3c2=O)ccc1Br | ? | ?
Cc1ccc(NC(=O)N(Cc2ccc3c(c2)OCO3)C2CCN(Cc3ccccc3)CC2)cc1Cl | ? | ?
CCOP(=O)(OCC)C(C)NC(=O)N(CCCl)N=O (stereo unspecified) | 7% | /
O=S(=O)(O)C(F)(F)C(F)(F)C(F)(F)C(F)(F)F | 10%[116 µM] | /
C[C@]12Cc3cn[nH]c3C[C@@H]1CC[C@@H]1[C@H]2CC[C@@]2(C)[C@H]1CC[C@]2(C)O | -4% | /
CC[C@H]1C=CC=CC[C@@H](C)[C@H](O)[C@@](C)(O)C(=O)[C@@H](C)[C@H](O)[C@@H](C)C(=O)[C@@H](C)[C@H](O)[C@@H](C)C=CC(=O)O[C@@H]2[C@@H](C)[C@H](CC1)O[C@]1(CC[C@H](C)[C@H](C[C@@H](C)O)O1)[C@H]2C | ? | /
CCN(CC)C(=O)c1ccc(NC(=O)Cn2nc(-c3ccc(C)cc3)c3ccccc3c2=O)cc1 | -11% | -5%
Cc1oc(-c2ccc(Cl)cc2)nc1CN1C(=O)CN=C(c2ccccc2)c2cc(Cl)ccc21 | -4% | 5%
CN1C(=O)COc2c(C(=O)NC3CN4CCC3CC4)cc(Cl)cc21 (stereo unspecified) | 8%&-2% | /
CCCC1CCCCN1 (stereo unspecified) | -5% | /
COc1cc(C[C@@H](C)N)c(OC)cc1Br | 0%[116 µM] | /
CC1OC(C)OC(C)O1 (stereo unspecified) | 10% | /
Cc1ccc(-n2c(/C=C/c3cccc(C(F)(F)F)c3)nc3ccccc3c2=O)cc1 | -30% | -7%
CC(C)=CCOc1c2occc2cc2ccc(=O)oc12 | -1% | /
COc1ccc(OC)c(NC(=O)Cn2cc(C(=O)c3ccccc3)c3ccccc32)c1 | ? | ?
Cc1cccc(C)c1OCC(=O)Nc1ccc(Cl)cc1C(=O)c1ccccc1 | -10% | 14%
O=C1CN=C(c2ccccc2)c2cc(Cl)ccc2N1Cc1ccc(Cl)cc1 | ? | ?
O=C(COc1ccccc1[N+](=O)[O-])N1CCN(CCc2ccccn2)CC1 | -19%[11.5 µM] | -3%
Cc1ccccc1-n1c(Cn2ncc3c(N)ncnc32)nc2cccc(C)c2c1=O | -16% | /
CCOc1ccc(CN(CCc2ccc3c(c2)OCO3)Cc2cccc(Br)c2)cc1 | 0% | 3%
NN=C(N)N | 7% | /
CC(C)[C@]12O[C@@H]1[C@@H]1O[C@]13[C@]1(O[C@H]1C[C@@H]1C4=C(CC[C@@]13C)C(=O)OC4)[C@H]2O | -38% | /
Cc1cccc(-n2c(/C=C\c3cccc(Br)c3)nc3ccccc3c2=O)c1 | ? | ?
Cc1ccc(-c2nc(CN3C(=O)CN=C(c4ccccc4)c4ccccc43)c(C)o2)cc1 | ? | ?
O=C(N[C@H]1CN2CCC1CC2)c1ccc(Cl)cc1 | 228%[activator] | /
CC1=C(C(=O)O)N2C(=O)[C@@H](N)[C@H]2SC1 | 1%[25.2 µM] | /
CN1C2CCC(C)(C)C1CC(OC(=O)C(O)(c1cccs1)c1cccs1)C2 (stereo unspecified) | 2% | /
CCOC(=O)c1cncn1[C@H](C)c1ccccc1 | -12% | /
CCNc1nc(Cl)nc(NCC)n1 | 1% | /

These rows are one share of the data; count on the stated rates, not on these rows.
